Bioassay records from PubChem BioAssay.
ALR inh: human ALR oxidase inhibition via reduced H2O2. P55789. purified ALR, DTT oxidation, H2O2 HRP-luminol luminescence. inhibition, % (concentration not given with the values). 3.8% of 290,000 active. AID 485317;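 active = mean and each replicate at 75% or more; inconclusive = only one of the two met; inactive = neither met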;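 note: stock transfer was 7.5 nL into about 7.5 µL; 0% = neutral wells and 100% = wells with inactivated enzyme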
Target sequence (P55789 whole entry, looked up): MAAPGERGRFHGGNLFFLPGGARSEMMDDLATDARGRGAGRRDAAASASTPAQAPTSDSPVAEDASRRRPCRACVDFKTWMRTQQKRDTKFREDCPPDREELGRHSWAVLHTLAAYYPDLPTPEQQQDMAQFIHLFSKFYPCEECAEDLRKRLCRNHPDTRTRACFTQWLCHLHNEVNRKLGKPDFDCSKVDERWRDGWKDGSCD
Calb FLC: C. albicans growth modulation with fluconazole | C. albicans CaCi-2 (fluconazole-resistant clinical isolate) + fluconazole, Alamar Blue growth, 48 h | growth inhibition, % (concentration not given with the values) | 0.57% of 300,000 active | AID 1979;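 active = most replicates above 75%; inconclusive = exactly half above 75%; inactive = most below 75%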;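 note: all wells also contain fluconazole at 8 µg/ml as a sub-toxic cotreatment; 0% = median of DMSO wells and 100% = median of geldanamycin control wells; wells of about 8 µL received 7.5 nL stock; the first replicate is given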
Beta2AR agonist: activates human beta-2 adrenergic receptor causing internalization. Am2.2-beta2AR cells, FAP receptor internalization, flow cytometry; reference of the scale not given here. P07550. response, % (test concentration not listed). 0.43% of 340,000 active;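 active = response above a set limit, near 3 SD of response in nonfluorescent compounds, cut at about 42% in these data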;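 note: stock transfer was 100 nL into about 11 µL; a reference agonist was the positive control; negative values mostly stem from fluorescent compounds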
RanGTP-Impb inh: inhibitors of RanGTP-importin-beta interaction, primary screen, biochemical, FRET, CFP-Ran, YFP-importin-beta, homogeneous | cell-free CFP-Ran/YFP-importin-beta FRET ratio | inhibition, % (test concentration not listed) | 1.1% of 300,000 active | AID 2216;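 active = most replicates above 15%; inconclusive = exactly half above 15%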;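 note: 0% = DMSO wells and 100% = Ran loaded with GDP instead of GTP; wells of about 40 µL received 100 nL stock; the first replicate is given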
Vif TR-FRET: HIV-1 Vif–A3G interaction blockers – biochemical, TR-FRET, GST-Vif 1-94, biotin-A3G peptide, dose response retest, primary screen (AID 1117319); TR-FRET GST-Vif / biotin-A3G peptide binding; higher % means a stronger effect; test concentration not given here; strong numbers were not always called active; inhibition, %, or IC50 in µM where a hit was titrated; 0.57% of 260,000 active;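 active = above the screen mean plus three standard deviations and confirmed in dose response; inconclusive = results disagree or hit not tested in dose response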;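 note: Vif residues 1-94 fused to GST binding biotinylated APOBEC3G peptide 110-148; 0% = full assay without inhibitor and 100% = GST in place of GST-Vif; retest series ran down from 100 µM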
LANA-H2B inh: blocks KSHV LANA binding to histone H2A/H2B; cell-free LANA-H2A/H2B peptide, fluorescence polarization; inhibition, % (no concentration beside the values); 0.6% of 320,000 active; AID 2629; in the data active = inhibition mostly above about 10%, no sharp cut-off; inactive = mostly below about 6.7%;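 note: stock transfer was 7.5 nL into about 10 µL; 0% = median of vehicle wells and 100% = median of positive control wells; one replicate is shown; the record names a cut of 25% in any replicate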
HNF4A DNA FP: change in binding of human HNF4 alpha to DNA | P41235 | HNF4a-FITC DNA binding, fluorescence polarization, 1 h | activity change, % at 10 µM | 0.3% of 360,000 active; in the data active = activity change above about 30%, passing the limit was not always enough;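 note: controls were the assay level and a saturating level of protein; the project sought stronger binding though the title names inhibitors; some compounds called inactive have numbers as strong as hits; positive values seem to mean higher polarization but the record does not say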
Target sequence (P41235 whole entry, looked up): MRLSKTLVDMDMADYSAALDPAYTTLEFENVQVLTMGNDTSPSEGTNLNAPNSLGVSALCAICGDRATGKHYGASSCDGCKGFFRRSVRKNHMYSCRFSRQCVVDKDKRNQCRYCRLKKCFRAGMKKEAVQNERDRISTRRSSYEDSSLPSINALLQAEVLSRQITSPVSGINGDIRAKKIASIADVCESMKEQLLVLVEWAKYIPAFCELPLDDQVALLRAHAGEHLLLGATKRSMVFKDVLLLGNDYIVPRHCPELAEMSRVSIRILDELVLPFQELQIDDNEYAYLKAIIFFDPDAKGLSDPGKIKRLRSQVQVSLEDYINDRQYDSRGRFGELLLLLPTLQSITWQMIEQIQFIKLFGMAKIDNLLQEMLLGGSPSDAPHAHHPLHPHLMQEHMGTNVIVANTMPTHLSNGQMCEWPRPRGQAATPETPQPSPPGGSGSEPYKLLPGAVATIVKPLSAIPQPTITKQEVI
Starred values were filed as active, the others as inactive; i = inactive; ? = inconclusive; . = no result given.

SMILES | ALR inh | Calb FLC | Beta2AR agonist | RanGTP-Impb inh | Vif TR-FRET | LANA-H2B inh | HNF4A DNA FP
CCCc1cc(=O)[nH]c(SCC(=O)NC(=O)NC2CCCC2)n1 | -0.1 | . | -2.1 | . | -4.6% | -0.6 | -4.5
CN1CC2(C)CN(C(c3ccccc3)c3ccccc3)CC(C)(C1)C2O (centres undefined) | -4.5 | -5.8 | 4.3 | -1.1 | -0.3% | -0.4 | 4.3
CN(C)S(=O)(=O)c1cccc(NC(=O)c2sccc2-c2ccccc2)c1 | -14.2 | -3.8 | 1.1 | -2.7 | . | 4.5 | -3.6
Cc1c(CNCCC2=CCCCC2)c(C(=O)O)c(C)n1Cc1ccccc1 | -3.9 | -22.2 | -5.7 | 0.9 | -10.8% | 4.7 | -0.5
CN(CCc1ccccn1)S(=O)(=O)c1ccc(F)cc1 | 4.8 | 2.1 | 2.7 | -0.8 | 2.0% | -9.0 | 1.1
O=C(CCN1C(=O)/C(=C/c2ccccc2)SC1=S)Nc1ccccn1 | 0.2 | -10.8 | 0.8 | 0.1 | . | 5.2 | 2.5
COc1cc(C(=O)NCC2CCCO2)ccc1OCc1c(C)noc1C (centres undefined) | 4.2 | 4.1 | -3.0 | -2.2 | 6.7% | 4.2 | 0.0
CCOc1ccc(S(=O)(=O)N2CCOCC2)cc1NC(=O)CN1C(=O)NC(C)(c2ccccc2)C1=O (centres undefined) | -3.2 | 2.9 | -4.1 | 0.4 | -8.9% | 7.4 | 1.6
COc1ccccc1CNC(=O)COC(=O)/C=C/c1ccc(OC(F)F)c(OC)c1 | -9.7 | -4.5 | 1.6 | 3.0 | -2.4% | 0.1 | -3.2
O=C(COc1ccc(/C=N/NC(=O)c2ccncc2)cc1)Nc1ccccc1 | -1.7 | 0.0 | -0.3 | -0.6 | . | 1.3 | 4.3
CC(C)(C)NCc1cc(Cl)ccc1OCc1cccs1 | -10.4 | -4.6 | 7.0 | ? | 24.8% | 7.5 | 2.0
O=[N+]([O-])c1ccc(N2CCN(C(=S)c3cccc([N+](=O)[O-])c3)CC2)cc1 | -0.4 | -3.4 | 6.8 | -1.2 | 2.4% | 1.1 | -1.1
CCOC(=O)c1[nH]c(C)c(C(=O)Nc2cc(Cl)ccc2C)c1C | -17.5 | -2.3 | 4.8 | -5.3 | 1.3% | 4.8 | -3.4
N#CCc1ccc(NS(=O)(=O)c2ccc(N3CCCC3=O)cc2)cc1 | . | -9.7 | -24.5 | 0.9 | -2.9% | 0.8 | -0.6
COc1ccc(/C=N/NC(=O)CN(C)S(=O)(=O)c2ccc(NC(C)=O)cc2)cc1 | . | 19.3 | 11.2 | 2.1 | -2.3% | 6.2 | -2.1
O=C1c2ccccc2-c2nc3ncnn3c(-c3ccccc3Cl)c21 | -6.1 | 5.4 | -8.7 | -5.5 | 0.4% | 2.6 | -0.2
COc1cc2nc(NC(=O)c3ccc(Cl)cc3)sc(=O)c2cc1OC | -8.6 | 0.3 | 16.7 | 3.0 | i | 1.6 | 0.5
COc1ccc(CN2CCC(CNC(=O)NC3CCCCC3)CC2)cc1 | -22.3 | -8.8 | 1.7 | 2.4 | 21.4% | -0.9 | -1.2
C=CCn1c(-c2ccco2)n[nH]c1=S | 2.2 | -7.1 | -5.6 | -0.3 | 2.2% | 3.3 | 1.1
O=C(CC(=O)c1ccncc1)c1ccccc1 | . | . | -4.6 | . | 1.0% | . | 0.2
COc1ccc(/C=N/NC(=O)c2ccn[nH]2)cc1Cn1nc(C)c([N+](=O)[O-])c1C | -0.2 | -15.9 | -0.8 | 1.6 | 1.8% | 1.8 | 2.0
CCc1ccc(NC(=O)Nc2cc(C(=O)NCC3CCCO3)ccc2N2CC3CC(C2)c2cccc(=O)n2C3)cc1 (centres undefined) | . | 10.9 | -5.4 | 5.0 | . | 3.1 | -2.5
CCSc1nnc(NC(=O)C2CCN(S(=O)(=O)c3cc(C(F)(F)F)ccc3Cl)CC2)s1 | -5.3 | 0.1 | -4.8 | -1.0 | 10.8% | -9.3 | -4.1
Cc1cc(C(F)(F)F)c(C#N)c(=O)[nH]1 | 3.0 | . | 4.0 | . | -0.4% | -5.1 | 0.9
COc1cc(/C=N\Nc2nc(-c3cccs3)c(NC(C)=O)s2)ccc1O | 98.9* | 2.1 | -6.9 | -5.1 | 16.3% | 7.0 | 4.0
Cc1ccc(S(=O)(=O)c2nc(S(C)(=O)=O)sc2N(C)C)cc1 | -1.2 | -8.3 | -8.8 | 5.0 | -2.5% | -1.8 | 0.7
Cn1nnc2c(N3CCCCC3)nccc21 | -1.8 | 2.1 | -5.1 | -2.3 | 3.8% | 0.2 | 1.1
Cc1ccc(NC(=O)C2CCC(CNC(=O)[C@@H]3Cc4ccccc4CN3)CC2)cc1 (some centres undefined) | 0.8 | -19.9 | -3.4 | 0.3 | -1.0% | 0.5 | 1.9
CSc1ccccc1OCc1cc(C(=O)NCCC2CCCCO2)no1 (centres undefined) | -5.2 | 2.0 | 2.0 | -1.9 | . | 0.9 | 2.4
O=C(/C=C/c1cccc(C(F)(F)F)c1)OCC(=O)N1CCN(c2ccccc2)CC1 | -0.1 | . | -2.8 | . | -6.7% | -2.1 | 6.8
CN(N)C(=S)NCc1ccccc1 | -0.5 | 8.1 | 1.4 | 3.2 | 4.2% | -4.5 | 0.0
Cc1ccc(C2=NS(=O)(=O)N(C)C(C(=O)Nc3ccc(F)cc3F)=C2)cc1 | -11.4 | -7.7 | -5.8 | 1.0 | . | -1.0 | 0.5
COc1ccc([C@H]2CC(=O)C=C(c3ccc(NC(C)=O)cc3)C2)cc1OC | -4.9 | . | 21.1 | . | . | 6.6 | 3.1
COc1ccc(CCNC(=O)CN2CCC(n3nnc4cc(F)ccc43)CC2)cc1OC | . | . | 5.3 | . | 20.7% | . | -0.3
COc1ccccc1N1CCN(C(c2cccs2)C(C)NC(=O)C(=O)N2CCCCC2)CC1 (centres undefined) | 73.9 | -9.8 | 9.1 | 0.1 | -4.6% | -2.8 | -5.0
COc1cc2[nH]c(=S)nc(NC3CCCCCC3)c2cc1OC | -1.4 | . | -10.3 | . | -2.0% | 0.1 | 1.6
CC(C)c1nc(SCC(=O)N2CCCC2)c2ccccc2n1 | -2.9 | 26.9 | 3.3 | -0.9 | -3.3% | -0.5 | 0.8
Cc1ccc(C2C(C#N)C(C#N)N3CCCN23)cc1 (centres undefined) | 4.5 | -0.6 | -2.7 | -0.8 | -0.2% | -5.5 | 2.0
CCN(CC)S(=O)(=O)c1ccc2c(c1)nc(SCn1nnc3ccccc3c1=O)n2CC | 0.2 | -8.0 | -13.1 | -2.9 | 0.1% | 0.8 | -2.5
COc1cc(S(=O)(=O)n2ccnc2)ccc1Br | 0.0 | -5.7 | 1.3 | -4.5 | -3.4% | 1.6 | 1.3
CCn1c(-c2csc(-c3ccccc3)n2)n[nH]c1=S | -2.0 | -13.0 | -6.5 | 4.0 | ? | -1.7 | 0.5
CCCC1CC(C)(/C(C)=N\NC(N)=S)OC1=O (centres undefined) | 4.1 | -5.8 | 2.2 | 3.1 | -2.5% | 2.1 | -1.1
CCN(CC)CCN(C(=O)c1ccc2c(c1)CCCC2)c1nc2cc(OC)c(OC)cc2s1 | -9.3 | 3.9 | 6.6 | 1.8 | . | -1.8 | 2.1
CCOC(=O)c1c(NC(=O)C2CCCN(S(=O)(=O)c3ccc(C)cc3)C2)sc2c1CCCC2 (centres undefined) | -17.8 | -1.4 | 14.1 | -4.6 | 31.8% | 1.7 | 0.6
CC(C)(C)OC(=O)C[C@@H]1C/C=C\C[C@H](CC(=O)N(CCO)Cc2ccccc2)C(=O)N[C@@H](Cc2c[nH]c3ccccc23)COC1=O | 2.2 | . | 2.2 | . | . | 3.2 | 3.2
COC(=O)CCNC(=O)c1ccc2[nH]c(C)c(C)c2c1 | ? | 10.3 | 13.6 | -0.2 | . | 0.8 | 0.4
CCc1cccc(C)c1NC(=S)N(CCCN1CCOCC1)Cc1cccnc1 | . | -5.8 | -4.4 | -4.0 | 10.7% | -2.0 | 0.9
Cc1ccsc1/C=N/NC(=O)C(=O)NCC(C)C | 1.6 | 43.1 | 0.3 | -0.3 | -1.0% | -2.3 | 3.1
Cc1ccc(C(=O)Nc2nc3ccccc3[nH]2)cc1 | -0.6 | 3.0 | -8.9 | 1.5 | . | -2.8 | 0.2
NC(=O)CC(NC(=O)c1ccc(Br)cc1)c1ccc(N2CCN(c3ccccc3)CC2)c([N+](=O)[O-])c1 (centres undefined) | 3.3 | -20.7 | -13.3 | 5.8 | . | -2.3 | 0.2
Remaining list, next part:
SMILES | ALR inh | Calb FLC | Beta2AR agonist | RanGTP-Impb inh | Vif TR-FRET | LANA-H2B inh | HNF4A DNA FP
C[C@@H]1O[C@@H](O[C@@H]2[C@@H](O)[C@H](OCCc3ccc(O)c(O)c3)O[C@H](CO)[C@H]2OC(=O)/C=C/c2ccc(O)c(O)c2)[C@H](O)[C@H](O)[C@H]1O | 98.4* | . | 10.3 | . | . | -0.7 | 2.2
CCOc1ccc(C(=O)NCC(=O)N2CCN(Cc3ccccc3)CC2)cc1 | -6.4 | . | 4.9 | . | . | 4.5 | -5.3
O=C(O)c1cc(-c2ccccc2)nn1CC1CC(c2cccnc2)=NO1 (centres undefined) | -11.0 | 6.3 | -2.7 | -1.5 | . | -3.1 | 1.1
C=CCc1ccccc1OCC(O)CNC(=O)c1ccccc1C(=O)O (centres undefined) | -0.2 | -5.0 | -3.8 | 1.0 | . | 2.6 | 1.1
CC(C)(C)c1cc(CP(=O)(c2ccccc2)c2ccccc2)cc(C(C)(C)C)c1O | -0.2 | 48.3 | 4.2 | 3.0 | . | -4.8 | 0.6
NS(=O)(=O)c1ccc(NC(=O)COC(=O)CCNC(=O)NC23CC4CC(CC(C4)C2)C3)cc1 | . | 0.0 | 7.3 | 3.0 | 27.7% | 3.8 | -4.9
CCCC(=O)C1CCN(Cc2ccccc2)CC1 | -13.0 | 6.3 | -1.4 | 1.8 | -4.5% | 2.8 | -3.1
CC(=O)Nc1cccc(NS(=O)(=O)c2cn(C)c(=O)n(C)c2=O)c1 | -3.6 | 3.2 | 3.9 | 2.3 | . | 1.4 | 1.9
Cc1ccc(C(=O)N/C(=C\c2cccc([N+](=O)[O-])c2)C(=O)OCN2C(=O)c3ccccc3C2=O)cc1 | 5.1 | 7.3 | -0.7 | -1.4 | 26.9% | 1.5 | -0.3
S=C(NCCc1ccccc1)NC1CCCCCC1 | 5.2 | -20.0 | -4.5 | -0.7 | 15.4% | -1.0 | -3.0
O=C(CCCN1C(=O)c2ccccc2C1=O)Nc1ccc(Br)cn1 | -0.7 | 1.5 | -8.8 | -2.9 | -5.3% | 6.8 | -1.8
O=C(N/N=C/c1ccccc1)C1CCCN1C(=O)c1cc([N+](=O)[O-])cc([N+](=O)[O-])c1 (centres undefined) | -26.8 | 14.0 | -0.9 | . | -0.2% | 2.6 | 10.8
COc1cc(/C=N/Nc2ccc(Cl)c(C(=O)O)c2)ccc1OC(=O)c1ccco1 | 42.9 | -5.9 | 0.6 | -2.3 | 1.0% | -6.5 | 7.6
COc1ccc(-c2ccc(CO)o2)cc1N | 98.8* | 29.0 | 5.6 | 0.8 | 6.2% | -6.4 | -0.9
COc1cc(/C=C2/SC(=S)N(Cc3ccccc3)C2=O)ccc1OCC(=O)O | -2.3 | 4.2 | -0.5 | -3.9 | . | -3.8 | 7.6
CC(=O)c1ccc(NC(=O)c2cccc(N3C(=O)c4ccccc4C3=O)c2)cc1 | -5.4 | -5.7 | 81.2* | -3.1 | . | -1.1 | 164.6
